BJeLR lethal = BJeLR cell viability loss; 300,000 tested, 0.17% active; BJeLR (HRASV12) viability, CellTiter-Glo ATP luminescence, 48 h; reference of the scale not given here; inhibition, % (no concentration beside the values);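 active = replicate mean above 50%; inconclusive = above 50% but judged a plate artefact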;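 note: 50 nL library stock added to about 25 µL; numbers are from one replicate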
RN4220 kill = kills Staphylococcus aureus RN4220; 330,000 tested, 0.33% active; inhibition, % (concentration not given with the values); S. aureus RN4220 growth, OD600, 16 h;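 active = z-score of -3 or lower and OD600 up to 0.18 on both plates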;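 note: plate controls were untreated cells for no effect and reference antibiotic for full effect; stock transfer was 100 nL into about 80 µL; one replicate is shown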
ugtP null kill = kills S. aureus RN4220 lacking UgtP. 330,000 tested, 0.54% active. growth inhibition, % (no concentration beside the values). AID 1259309. S. aureus RN4220 ugtP deletion, OD600 growth, 16 h; some inactives read as strong as hits;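 active = z-score under -3 and OD600 up to 0.15 on both plates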;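 note: plate controls were untreated wells for no effect and antibiotic for full effect; wells of about 80 µL received 100 nL stock; the first replicate is given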
PrP UTR inh = suppresses PrP 5' UTR mRNA reporter expression | cell-based PrP 5' UTR mRNA reporter, plate reader | inhibition, % (concentration not given with the values) | 340,000 tested, 0.35% active;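 active = every replicate at 50% or more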;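 note: 0 = median of the neutral control wells; tested in H4 reporter cells; numbers are from one replicate; inactives centre near -14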
Autofluor counter = counter-screen for toxin protease inhibitors: compound fluorescence. compound autofluorescence counterscreen, microsphere flow cytometry; active compounds read high. fluorescence intensity (concentration not given with the values). 360,000 tested, 3.1% active. AID 624483;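 active = at least 3 SD above the mean of all compounds, about 16000 in these data; inconclusive = too few beads counted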;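 note: 100 nL of 1 mM stock went into each well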
Mtb hypoxia inh = Mtb hypoxia fluorescent reporter inhibition. M. tuberculosis hypoxia-regulated fluorescent reporter, fluorescence. fluorescence inhibition, % (test concentration not listed). 300,000 tested, 0.1% active;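 active = 35 to 45% if threefold the growth effect, above 45% if 1.5-fold the growth effect; inactive = the rest, general growth blockers included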;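 note: wells of about 50 µL received 100 nL stock; 0% = vehicle wells and 100% = reference inhibitor wells; whole bacteria with a GFP reporter of the hypoxia response; strong numbers were not always called active; many hits fall short of the cut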
Mtb hypoxia inh growth = recorded beside Mtb hypoxia inh, whose call it bears; growth inhibition, %; measured here: M. tuberculosis growth (absorbance);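 0% = vehicle and 100% = reference antibiotic; read after six days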
* hit, by the source's call.

How did Cc1ccccc1NC(=S)N1CCC(NC(=O)c2ccco2)CC1 do in these assays?
RN4220 kill: 0.3; ugtP null kill: 3; PrP UTR inh: -15; Autofluor counter: 3302; Mtb hypoxia inh: -7; Mtb hypoxia inh growth: 2

Results for CCc1ccc(OCc2nnc(SCCN3CCOCC3)n2CC)cc1 ?
BJeLR lethal: 1; RN4220 kill: 7.4; ugtP null kill: 8; PrP UTR inh: -18; Autofluor counter: 6015; Mtb hypoxia inh: 5; Mtb hypoxia inh growth: 17

Results for O=c1cc(/N=C/c2coc3c(ccc4ccccc43)c2=O)[nH]c(=S)[nH]1 ?
BJeLR lethal: -7; PrP UTR inh: -13; Autofluor counter: 2478

Results for Cc1ccc(/C=N/c2sc3c(c2C#N)CCCCC3)o1 ?
BJeLR lethal: -4; PrP UTR inh: -54; Autofluor counter: 3023

How did CC(=O)N1CCOc2ccc(S(=O)(=O)Nc3cccc(C)n3)cc21 do in these assays?
BJeLR lethal: 3; RN4220 kill: 3.7; ugtP null kill: 9; PrP UTR inh: -2; Autofluor counter: 5301; Mtb hypoxia inh: 5; Mtb hypoxia inh growth: 1

What do the screens show for `O=C(Cc1ccccc1)NCC(=O)NN=Cc1cccnc1`?
RN4220 kill: 4.9; ugtP null kill: 10; Mtb hypoxia inh: 9; Mtb hypoxia inh growth: 4

Results for Cc1cccc(NC(=O)Nc2cccc3ccccc23)c1 ?
BJeLR lethal: -4; RN4220 kill: 0.0; ugtP null kill: -3; PrP UTR inh: -15; Autofluor counter: 6052; Mtb hypoxia inh: -5; Mtb hypoxia inh growth: 3

Results for Cc1ccc(OCc2nnc(SCC(=O)NCc3ccco3)n2C)cc1 ?
BJeLR lethal: 4; RN4220 kill: -0.4; ugtP null kill: 7; PrP UTR inh: -12; Autofluor counter: 3868

How did CCOc1ccc(-c2nnc(-c3ccco3)o2)cc1 do in these assays?
BJeLR lethal: 8; RN4220 kill: 4.9; ugtP null kill: -15; PrP UTR inh: -10; Autofluor counter: 8003; Mtb hypoxia inh: 24; Mtb hypoxia inh growth: 21

How did CCN(CC)CCN1C(=O)C2C3c4ccccc4C(c4ccccc43)C2C1=O (stereo unspecified) do in these assays?
BJeLR lethal: -3; RN4220 kill: 2.8; ugtP null kill: -7; PrP UTR inh: -4; Autofluor counter: 4020

Results for COC(=O)/C=C(\C)N=Nc1c(O)[nH]c2ccccc12 ?
BJeLR lethal: 15; RN4220 kill: 3.5; ugtP null kill: -8; PrP UTR inh: -18; Autofluor counter: 6215; Mtb hypoxia inh: 19; Mtb hypoxia inh growth: -2

What do the screens show for `COC(=O)c1ccc(NC(=O)c2ccc(N(C)S(C)(=O)=O)cc2)cc1`?
BJeLR lethal: 15; RN4220 kill: 2.8; ugtP null kill: -3; PrP UTR inh: -8; Autofluor counter: 10116; Mtb hypoxia inh: 5; Mtb hypoxia inh growth: 8

What do the screens show for `COc1ccc(CNC(=O)CN(C(=O)c2snc(C(N)=O)c2N)c2ccccc2F)cc1`?
BJeLR lethal: 3; RN4220 kill: 0.5; ugtP null kill: 2; PrP UTR inh: -2; Autofluor counter: 4370; Mtb hypoxia inh: -3; Mtb hypoxia inh growth: -2

How did OCCNc1c2c(nc3ccccc13)CCCC2 do in these assays?
BJeLR lethal: 13; RN4220 kill: 1.7; ugtP null kill: 5; PrP UTR inh: 2; Autofluor counter: 4853

Results for O=[N+]([O-])/C=C1/CCCCCN1 ?
BJeLR lethal: 5; RN4220 kill: -0.7; ugtP null kill: 6; PrP UTR inh: 0; Autofluor counter: 4387; Mtb hypoxia inh: 15; Mtb hypoxia inh growth: 4

How did O=C(Cc1cccc2ccccc12)NNC(=O)c1cccs1 do in these assays?
BJeLR lethal: -14; RN4220 kill: 1.4; ugtP null kill: 1; PrP UTR inh: -22; Autofluor counter: 3536

What do the screens show for `COc1cc2c(-c3ccc4cc[nH]c4c3)c(-c3ccc(C#N)cc3)oc(=O)c2cc1OC`?
RN4220 kill: 1.4; ugtP null kill: 18; PrP UTR inh: -20; Autofluor counter: 3660; Mtb hypoxia inh: 9; Mtb hypoxia inh growth: 13

How did O=C(/C=C\c1ccco1)Nc1nc(-c2ccccc2)cs1 do in these assays?
BJeLR lethal: 2; RN4220 kill: 2.9; ugtP null kill: 11; PrP UTR inh: -29; Autofluor counter: 2127; Mtb hypoxia inh: 3; Mtb hypoxia inh growth: 2

What do the screens show for `O=C1c2cccc3c(Nc4ccccc4Cl)c([N+](=O)[O-])cc(c23)C(=O)N1CCO`?
BJeLR lethal: 3; RN4220 kill: 25; ugtP null kill: -8; PrP UTR inh: -4; Autofluor counter: 7992; Mtb hypoxia inh: -2; Mtb hypoxia inh growth: 3

How did Cc1cc(C)c(NS(=O)(=O)c2ccc3c(c2)NC(=O)CC(=O)N3)c(C)c1 do in these assays?
BJeLR lethal: 7; RN4220 kill: 3.7; ugtP null kill: 4; PrP UTR inh: -27; Autofluor counter: 2888; Mtb hypoxia inh: 1; Mtb hypoxia inh growth: 5

How did Cc1ccc(C(=O)NNC(=O)c2csc(N3CCOCC3)n2)s1 do in these assays?
BJeLR lethal: 5; RN4220 kill: -3.6; ugtP null kill: 1; PrP UTR inh: -6; Autofluor counter: inconclusive; Mtb hypoxia inh: -4; Mtb hypoxia inh growth: 4

What do the screens show for `CCN(CC(=O)Nc1sc2c(c1C#N)CCCC2)CC(=O)NC1CCS(=O)(=O)C1` (stereo unspecified)?
BJeLR lethal: -1; RN4220 kill: 5.0; ugtP null kill: 17; PrP UTR inh: -15; Autofluor counter: 4028; Mtb hypoxia inh: -6; Mtb hypoxia inh growth: -8

Results for CCN(C(=O)COC(=O)CSc1ccc(C)c(C)c1)C1CCS(=O)(=O)C1 (stereo unspecified) ?
BJeLR lethal: -11; RN4220 kill: 1.3; ugtP null kill: 12; PrP UTR inh: -20; Autofluor counter: 6061; Mtb hypoxia inh: 8; Mtb hypoxia inh growth: 4

What do the screens show for `CC(C)CC1C(C#N)=C(N)OC2=C1C(=O)CC(c1ccccc1)C2` (stereo unspecified)?
BJeLR lethal: 1; RN4220 kill: 5.5; ugtP null kill: 7; PrP UTR inh: -20; Autofluor counter: 4486; Mtb hypoxia inh: -1; Mtb hypoxia inh growth: 4

Results for O=C(O)c1ccc(C2NCC(c3ccccc3Cl)c3c2[nH]c2ccccc32)cc1 (stereo unspecified) ?
BJeLR lethal: -20; RN4220 kill: -3.5; ugtP null kill: 1; PrP UTR inh: -14; Autofluor counter: 4651; Mtb hypoxia inh: -9; Mtb hypoxia inh growth: 8

How did C=CCN1C(=O)C(O)(CC(=O)c2ccc(N)cc2)c2ccccc21 (stereo unspecified) do in these assays?
BJeLR lethal: 3; RN4220 kill: -8.4; ugtP null kill: -4; PrP UTR inh: -7; Autofluor counter: 2421; Mtb hypoxia inh: 1; Mtb hypoxia inh growth: 11

What do the screens show for `O=C(C[n+]1ccccc1)N/N=C/c1ccc(Cl)c(Cl)c1`?
BJeLR lethal: -2; PrP UTR inh: -17; Autofluor counter: 4128

What do the screens show for `CC(=O)N1CCC(N(CCN2CCOCC2)C(=O)Nc2ccc(Cl)c(Cl)c2)CC1`?
BJeLR lethal: -3; RN4220 kill: -4.3; ugtP null kill: 9; PrP UTR inh: -5; Autofluor counter: 4480; Mtb hypoxia inh: 4; Mtb hypoxia inh growth: 4

What do the screens show for `COc1ccccc1NS(=O)(=O)c1ccc(C)c(C(=O)NCC2CCCO2)c1` (stereo unspecified)?
BJeLR lethal: 7; RN4220 kill: 3.8; ugtP null kill: 4; PrP UTR inh: -14; Autofluor counter: 5765; Mtb hypoxia inh: 4; Mtb hypoxia inh growth: 7

What do the screens show for `CC1CC(C)CN(C(=O)COC(=O)COc2ccccc2C#N)C1` (stereo unspecified)?
RN4220 kill: 6.7; ugtP null kill: 3; PrP UTR inh: -2; Autofluor counter: 5152; Mtb hypoxia inh: 9; Mtb hypoxia inh growth: 8

Results for COc1ccc(C2CC(=O)C=C(c3cccc(Cl)c3)C2)cc1OC (stereo unspecified) ?
RN4220 kill: 4.6; ugtP null kill: 3; Mtb hypoxia inh: 14; Mtb hypoxia inh growth: 4

What do the screens show for `O=C(Nc1nc2ccccc2s1)c1ccccc1`?
BJeLR lethal: -14; RN4220 kill: 3.1; ugtP null kill: 10; PrP UTR inh: -27; Autofluor counter: 4130; Mtb hypoxia inh: 11; Mtb hypoxia inh growth: 11

How did CCOc1ccccc1NC(=O)N1CCN(S(C)(=O)=O)CC1 do in these assays?
BJeLR lethal: 6; RN4220 kill: 5.2; ugtP null kill: 8; PrP UTR inh: -20; Autofluor counter: inconclusive; Mtb hypoxia inh: 6; Mtb hypoxia inh growth: -4

Results for CC(=O)Nc1ccc(C(=O)NNC(=O)C2C3CCCCC32)cc1 (stereo unspecified) ?
BJeLR lethal: -5; RN4220 kill: 0.3; ugtP null kill: 4; PrP UTR inh: -6; Autofluor counter: 4047; Mtb hypoxia inh: 9; Mtb hypoxia inh growth: 7

How did COc1ccc(C(=O)/C=C/c2ccc(OC)cc2OC)c(O)c1 do in these assays?
BJeLR lethal: 7; RN4220 kill: 5.3; ugtP null kill: -13; PrP UTR inh: -55; Autofluor counter: 4883

Results for COc1ccc(N2CCN(C(=O)C(=O)c3c(C)[nH]c4ccccc34)CC2)cc1 ?
BJeLR lethal: 1; RN4220 kill: 5.3; ugtP null kill: 12; PrP UTR inh: -29; Mtb hypoxia inh: -8; Mtb hypoxia inh growth: -4

How did CCOC(=O)COn1c(=O)c(-c2ccc(Cl)cc2)[n+]([O-])c2ccccc21 do in these assays?
BJeLR lethal: -6; RN4220 kill: 1.8; ugtP null kill: 7; PrP UTR inh: -18; Autofluor counter: 3448; Mtb hypoxia inh: -4; Mtb hypoxia inh growth: -2

Results for Cc1ccc(N=CNc2ccc(C)cc2C)c(C)c1 ?
BJeLR lethal: -7; RN4220 kill: 3.8; ugtP null kill: 11; PrP UTR inh: -8; Mtb hypoxia inh: 8; Mtb hypoxia inh growth: -7

What do the screens show for `Cc1cc(NC(=O)CCN2C(=O)/C(=C/c3ccccc3Cl)SC2=S)no1`?
BJeLR lethal: -9; RN4220 kill: 7.2; ugtP null kill: -13; PrP UTR inh: -25; Autofluor counter: 2530; Mtb hypoxia inh: 5; Mtb hypoxia inh growth: 4

What do the screens show for `CCc1ccc(NC(=O)CC2C(=O)NCCN2C(=O)c2ccccc2OC)cc1` (stereo unspecified)?
BJeLR lethal: 4; RN4220 kill: -2.8; ugtP null kill: 5; PrP UTR inh: -4; Autofluor counter: inconclusive; Mtb hypoxia inh: 1; Mtb hypoxia inh growth: 0

Filtered by structure: the entries above containing an aryl thioether with sulfur outside any ring.
Results for CCc1ccc(OCc2nnc(SCCN3CCOCC3)n2CC)cc1 ?
BJeLR lethal: 1; RN4220 kill: 7.4; ugtP null kill: 8; PrP UTR inh: -18; Autofluor counter: 6015; Mtb hypoxia inh: 5; Mtb hypoxia inh growth: 17

Results for Cc1ccc(OCc2nnc(SCC(=O)NCc3ccco3)n2C)cc1 ?
BJeLR lethal: 4; RN4220 kill: -0.4; ugtP null kill: 7; PrP UTR inh: -12; Autofluor counter: 3868

Results for CCN(C(=O)COC(=O)CSc1ccc(C)c(C)c1)C1CCS(=O)(=O)C1 (stereo unspecified) ?
BJeLR lethal: -11; RN4220 kill: 1.3; ugtP null kill: 12; PrP UTR inh: -20; Autofluor counter: 6061; Mtb hypoxia inh: 8; Mtb hypoxia inh growth: 4

New compounds follow.
What do the screens show for `O=C(O)C1CCCCC1C(=O)Nc1ccc2c(c1)CCC2` (stereo unspecified)?
BJeLR lethal: 1; RN4220 kill: -0.5; ugtP null kill: 7; PrP UTR inh: -7; Autofluor counter: 2799

Results for COc1ccc(/C=N/Nc2ccccn2)cc1O ?
BJeLR lethal: 7; PrP UTR inh: -80; Autofluor counter: 4734

Results for O=C(Nc1ccccc1F)C1C2C=CC3(O2)C1C(=O)N(c1cccnc1)C3C(=O)NC1CCCCC1 (stereo unspecified) ?
BJeLR lethal: -4; RN4220 kill: 2.6; ugtP null kill: -5; PrP UTR inh: -18; Autofluor counter: 3721; Mtb hypoxia inh: 4; Mtb hypoxia inh growth: 3

How did Cn1c(Sc2nc3ccccc3n2C)nc2ccccc21 do in these assays?
BJeLR lethal: -10; RN4220 kill: -1.4; ugtP null kill: 11; PrP UTR inh: -18; Autofluor counter: 4371; Mtb hypoxia inh: 6; Mtb hypoxia inh growth: 2

Assay outcomes as filed in PubChem.
